A488 fluor: qHTS Assay for Spectroscopic Profiling in A488 Spectral Region. compound autofluorescence, A488 spectral region, dye equivalency; stronger effect = higher value. max dye equivalency, M. 59,000 tested, 0.1% active; active = above 10 nM dye equivalent; inconclusive = 1 to 10 nM; inactive = 1 nM or less; about half of its hits are not listed in these tables;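 also: highest value over a series up to 38 µM; compound alone in buffer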
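Compounds pin-transferred into 100 mM Tris buffer, pH 8.0, incubated 15 min at room temperature, then imaged with 480 nm excitation/540 nm emission filters. Fluorescence converted to Alexa 488 dye-equivalent concentration via an on-plate six-point A488 standard curve.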
TSHR ag: qHTS Assay for Agonists of the Thyroid Stimulating Hormone Receptor; HEK293-CNG-TSHR cells (CNG channel as cAMP sensor), membrane potential dye, cAMP; Potency, µM (highest dose often 57.1 µM), for inactives: at the top dose activation, most hits filed as activators; 73,000 tested, 0.48% active; AID 926, 2007; active = well fitted activation curve of enough size with the parental cells flat; inconclusive = any curve in the parental cells; inactive = parental cells flat and receptor cells flat or falling; also: potency is read from the fitted curve at half-maximal effect; % of control where 0% means no effect; weak receptor curves with flat parental cells got no call and are not listed
Target sequence (P16473 whole entry, looked up): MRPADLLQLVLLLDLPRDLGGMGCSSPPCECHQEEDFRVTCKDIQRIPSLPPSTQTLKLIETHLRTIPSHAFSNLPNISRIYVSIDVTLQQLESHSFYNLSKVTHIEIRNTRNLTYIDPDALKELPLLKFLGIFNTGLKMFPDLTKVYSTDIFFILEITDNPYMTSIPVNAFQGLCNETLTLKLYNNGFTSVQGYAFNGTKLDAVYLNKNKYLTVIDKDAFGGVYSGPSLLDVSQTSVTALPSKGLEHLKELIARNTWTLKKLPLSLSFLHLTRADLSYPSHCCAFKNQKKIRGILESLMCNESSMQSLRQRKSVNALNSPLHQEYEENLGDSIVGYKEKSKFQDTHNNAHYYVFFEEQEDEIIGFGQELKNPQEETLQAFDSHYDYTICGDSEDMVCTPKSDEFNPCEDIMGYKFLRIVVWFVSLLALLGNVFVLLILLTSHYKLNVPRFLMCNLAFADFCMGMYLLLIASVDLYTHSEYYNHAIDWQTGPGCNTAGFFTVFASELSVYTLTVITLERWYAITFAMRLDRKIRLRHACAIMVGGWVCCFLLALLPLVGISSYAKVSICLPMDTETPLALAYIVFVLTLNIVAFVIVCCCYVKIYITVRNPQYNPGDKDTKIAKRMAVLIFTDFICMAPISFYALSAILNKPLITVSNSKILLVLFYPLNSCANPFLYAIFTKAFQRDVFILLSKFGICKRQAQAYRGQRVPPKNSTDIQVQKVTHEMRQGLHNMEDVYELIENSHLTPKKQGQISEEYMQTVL
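HEK 293 cells stably expressing TSHR and a cAMP-gated CNG channel; parental CNG-only cells as counterscreen. Cells preloaded 60 min with membrane potential dye plus 100 uM RO 20-1724, then compound 30 min; fluorescence read at 590 nm.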
Resorufin fluor: qHTS Assay for Spectroscopic Profiling in Resorufin Spectral Region | 59,000 tested, 0.04% active | Compound fluorescence, resorufin region 547/598 nm, buffer; stronger effect = higher value | AID 588, 2007 | max dye-equivalent concentration, M; active = above 10 nM dye equivalent; inconclusive = 1 to 10 nM; inactive = 1 nM or less; a few of its hits are not listed in these tables; also: highest value over a series up to 38 µM
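Intrinsic fluorescence profiled in the resorufin window (ex 547 nm, em 598 nm) after 15 min at room temperature in pH 8.0 Tris buffer (100 mM); responses normalized against a six-point resorufin standard series as dye-equivalent concentration.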
A647 fluor: qHTS Assay for Spectroscopic Profiling in A647 Spectral Region; Compound fluorescence, A647 channel (570/671 nm), Tris buffer; AID 592, 2007; max dye-equivalent concentration, M; 59,000 tested, under 10 active; active means above 1 µM dye equivalent; inconclusive means 0.1 to 1 µM; inactive means 0.1 µM or less;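 also: values scaled relative to a standard on each plate; highest value over a series up to 38 µM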
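Compound fluorescence was measured in 100 mM Tris buffer, pH 8.0, after 15 min at room temperature, using 570 nm excitation and 671 nm emission filters. Signal was normalized to a per-plate Alexa 647 standard curve and expressed as dye-equivalent concentration at each compound concentration.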
AID923: qHTS Assay for Allosteric/Competitive Inhibitors of Caspase-1: Spectroscopic Profiling in AFC Spectral Region; compound fluorescence, AFC spectral region (405/520 nm); almost no hit is shown here; Potency, µM (doses to about 57.5 µM), for inactives: at the highest dose fluorescence increase, hits mostly activators; 75,000 tested, 1.1% active; active = well fitted activation curve with a large enough effect; inconclusive = small, poorly fitted or top-dose-only effect;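 also: potency is read from the fitted curve at half-maximal effect; 0% is about no effect; scaled to a free AFC standard on each plate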
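Compound autofluorescence profiled at 405 nm ex/520 nm em during kinetic caspase 1 run (50 nM enzyme, 5 uM Ac-WEHD-AFC, HEPES pH 7.5, 10 mM DTT). Titration up to 57 uM; baseline from regression intercept, normalized to AFC standard curve.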
Numbers without * were called inactive; i = inactive; ? = inconclusive; · = not tested or not shown; & = joins results of further samples; [ ] = remark or other dose.

SMILES | A488 fluor | TSHR ag | Resorufin fluor | A647 fluor | AID923
CN(CC(=O)Nc1cccnc1)S(=O)(=O)c1cc(Cl)ccc1Cl | i | 13% | i | 1.2e-08 | 0.2%
COc1ccc(C2CC(C(F)(F)F)n3ncc(C(=O)Nc4cccc(O)c4)c3N2)cc1OC (configuration not stated) | i | · | i | 5.1e-08 | ·
COc1cccc(/C=N/n2c(-c3ccco3)nc3ccccc3c2=O)c1 | i | ? | i | 1.2e-08 | -1.5%
CC(=O)N(Cc1cccnc1)Cc1cc2ccc(C)cc2[nH]c1=O | i | -5% | i | 1e-09 | -0.3%
CN(C)c1nc(NS(=O)(=O)c2ccc(Cl)cc2)nc(N(C)C)n1 | i | 2% | i | 1.6e-08 | 2.0%
Cc1ccc2cc(CN(CCO)Cc3nnnn3Cc3ccc(F)cc3)c(=O)[nH]c2c1 | i | 6% | i | 2.7e-08 | 14%
COc1ccc(NC(=O)Nc2nnc(N3CCC(C)CC3)s2)cc1OC | · | ? | · | · | 2.9%
CC(=O)C1=C(C)N=c2s/c(=C/c3ccc4c(c3)OCO4)c(=O)n2C1c1ccc(N(C)C)cc1 (configuration not stated) | i | 2% | i | 2.5e-09 | -1.6%
O=C(Nc1ccccc1)N1CC2(CCN(C(=O)c3cnccn3)CC2)C1 | i | 0% | i | 2.1e-08 | -0.3%
CC(OC(=O)c1cc(=O)[nH]c2ccccc12)c1ccccc1 (configuration not stated) | i | 18% | i | 2.5e-08 | -0.8%
Cc1ccc(C2CC(c3ccccc3)n3ncnc3N2)cc1 (configuration not stated) | · | 26% | · | · | -0.4%
CCOC(=O)CCNC(=O)Nc1ccc2nc(C)n(Cc3cccc(Cl)c3)c(=O)c2c1 | i | 5% | i | 1.6e-09 | -0.2%
Cc1cccc(-n2cnc3cc(C(=O)N4CCCCC4)ccc32)c1 | i | 5% | i | 8.1e-09 | -1.4%
CC1CCc2c(nc3ncnn3c2N2CCN(c3ccccc3)CC2)C1 (configuration not stated) | i | ? | i | 7.2e-09 | -0.4%
CCOC(=O)N/N=C1/C[C@@H](O)[C@@H](O)[C@@H]2[C@@H]3C(=O)N(C4CCCCC4)C(=O)[C@H]3CC[C@@H]12 | · | 5%[11.4 µM] | · | · | 0.7%[11.5 µM]
O=S(=O)(c1ccc(NCC2CCCCC2)nc1)N1CCOCC1 | i | ? | i | 1e-09 | -1.2%
c1cncc(Nc2nc(-c3cccnc3)cs2)c1 | i | -18% | i | 3.1e-09 | -0.4%
C[C@@]12CCC(=O)C=C1CC[C@H]1[C@@H]2[C@@H](O)C[C@]2(C)[C@@H]1CC[C@@]2(O)C(=O)CO | i | 1%[11.4 µM] | i | 2.2e-08 | -2.4%[11.5 µM]
CCOC(=O)Cc1csc(NC(=O)c2c(O)c3ccccc3n(C)c2=O)n1 | i | 10% | i | 1.9e-09 | 0.8%
Clc1ccccc1C(Nc1ncccn1)Nc1ncccn1 | i | -1%[11.4 µM] | i | 1e-09 | -2.0%[11.5 µM]
COc1ccc(N=C(C)C2=C(O)COC2=O)cc1 | · | 1% | · | · | 2.6%
COC(=O)CCC(=O)Nc1ccc(Cl)c(Cl)c1 | i | -11% | i | 1.2e-09 | 0.7%
CCOC(=O)NC1(NC2CCCCC2)Oc2ccccc2O1 | i | 8% | i | 3.5e-08 | -1.9%
Cc1ccc(Cl)cc1NC(=O)CC(O)(C(F)(F)F)C(F)(F)F | i | ? | i | 1e-09 | -0.1%
CCc1cc(=O)oc2cc(C)cc(OC(=O)c3ccco3)c12 | i | 21% | i | 4.4e-08 | -0.7%
Cn1c(C(=O)O)c(CC(=O)Nc2ccc3c(c2)OCCO3)c2ccccc21 | i | 0% | i | 1e-09 | 0.2%
Cc1cccc2cc(CN(CC3CCCO3)C(=O)c3ccco3)c(=O)[nH]c12 (configuration not stated) | i | 0% | i | 4.3e-08 | 1.3%
COC(=O)COc1ccc(S(=O)(=O)NCCC2=CCCCC2)cc1C | i | ? | i | 3e-08 | 1.7%
COc1ccc(CNC(=O)C2CCCN2C(=O)NC2CCCCC2)cc1 (configuration not stated) | i | 3% | i | 3.5e-08 | 2.6%
COc1cccc(N2C(=O)CC(c3c[nH]c4ccccc34)C2=O)c1 (configuration not stated) | i | -10% | i | 9.8e-09 | 0.5%
COC(=O)[C@@]1(Cc2ccccc2)[C@H]2c3cc(C(=O)N4CCCC4)n(Cc4c(CO)[nH]cc(C)c4=O)c3C[C@H]2CN1C(=O)c1ccccc1 | · | 9% | · | · | 2.4%
Cc1cc(C(C)(C)C)cc(S(=O)(=O)NCCO)c1C | i | -12% | i | 7.8e-09 | 1.5%
CCN(CC)S(=O)(=O)c1ccc(/C(O)=C(\C#N)c2nc3ccccc3n2C)cc1 | i | · | i | 3.7e-09 | 20%
Cc1ccc(C(=O)Nc2ccc3c(c2)OCO3)cc1S(=O)(=O)N1CCCCC1 | i | ? | i | 1.5e-08 | -1.1%
CC/C(=C1/C(=O)CC(C)(C)C(C(=O)OC)C1=O)N1CCCC1 (configuration not stated) | i | -17% | i | 1.6e-08 | 0.5%
CC1CN(S(=O)(=O)c2cccc(-c3cn4ccccc4n3)c2)CC(C)O1 (configuration not stated) | i | 19% | i | 4.9e-08 | -1.6%
COc1ccc(C2CC(=O)C(C=NCCCN3CCOCC3)=C(O)C2)cc1 (configuration not stated) | · | ? | · | · | 1.7%
Cc1ccc2c(c1)[nH]c1c(N3CCN(Cc4ccc5c(c4)OCO5)CC3)ncnc12 | i | ? | i | 3e-08 | 2.8%
Cc1cccc2cc(COC(=O)C3CCCCC3)c(=O)[nH]c12 | i | 7% | i | 2.8e-08 | 3.4%
COc1cc(NC(=O)C2CCCCC2)c(OC)cc1NC(=O)c1ccco1 | i | -4% | i | 1.2e-08 | 0.4%
Cc1cccc(Cn2c(CN3CCN(Cc4ccccc4)CC3)nc3c2c(=O)[nH]c(=O)n3C)c1 | · | 5% | · | · | 1.0%
Cn1cccc1Cc1nnc(SCC(=O)N2CCOCC2)n1CCc1ccccc1 | · | 1% | · | · | -2.2%
CCOc1ccc(OCC)c(S(=O)(=O)N2CCCCC2C)c1 (configuration not stated) | i | 2%[11.4 µM] | i | 3.3e-08 | -0.9%
COC(=O)c1ccc(Nc2cc(C)nc3ncnn23)cc1 | i | 3% | i | 2.7e-09 | 0.5%
O=C(Nn1cnnc1)c1cc2c(s1)CCCCC2 | i | 7% | i | 5.5e-09 | 0.0%
CNc1ncnc2ccc(-c3cccc(NS(C)(=O)=O)c3)cc12 | i | 2% | i | 1e-09 | 3.2%
COC(=O)c1ccc(C(=O)OC)c(NC(=O)COC(=O)C23CC4CC(CC(O)(C4)C2)C3)c1 | i | 8% | i | 1.2e-08 | -0.9%
O=C(O)/C=C\c1ccc(O)c(O)c1 | i | ? | i | 1e-09&2.3e-09&2.8e-08 | 0.4%[25.7 µM]
c1ccc(-c2nnc(OCCN3CCOCC3)c3ccccc23)cc1 | i | · | i | 2.1e-09 | ·
COc1cccc(C2(O)CCN(C(=O)c3cccs3)CC2)c1 | i | 0% | i | 3.6e-08 | -0.3%
c1ccc(C2COC(c3cccs3)=N2)cc1 (configuration not stated) | i | 4% | i | 1e-09 | -0.3%
O=C(c1cnc(N2CCN(c3ncccn3)CC2)c2ccccc12)N1CCN(c2ccccn2)CC1 | i | 18% | i | 1e-09 | 2.3%
Cn1c(Cn2c(=O)sc3ccccc32)nnc1SCC(=O)NCc1ccc2c(c1)OCO2 | · | 4% | · | · | 1.6%
CCOC(=O)c1[nH]nc(-c2c(O)cc(C)cc2O)c1-c1csc(C)n1 | i | 2% | i | 2.7e-09 | 0.9%
Cc1nn2c(nc1=O)SCC(c1ccccc1)=N2 | i | ? | i | 2.3e-09 | -1.9%
COc1ccc(OC)c(-c2cc(C(=O)Nc3c(C)n(C)n(-c4ccccc4)c3=O)no2)c1 | i | 13% | i | 4.5e-09 | -1.4%
O=c1[nH]c(SCc2cccc([N+](=O)[O-])c2)nc2nc[nH]c12 | i | 4%[11.4 µM] | i | 2.1e-08 | -1.1%[11.5 µM]
O=C(OCC(=O)N1CCCc2ccccc21)C1CCN(S(=O)(=O)c2cccs2)CC1 | i | 7% | i | 1.7e-08 | -1.9%
O=C(O)c1c(F)c(F)c(F)c(F)c1-c1ccc(Cl)cc1 | · | 4% | · | · | 3.9%
COc1ccc(C(=O)N2CCCN(C)CC2)cc1S(=O)(=O)N1CCCc2ccccc21 | i | 10% | i | 1e-09 | -0.1%

Next section; it opens with the 6 that closed the last part.
SMILES | A488 fluor | TSHR ag | Resorufin fluor | A647 fluor | AID923
Cc1nn2c(nc1=O)SCC(c1ccccc1)=N2 | i | ? | i | 2.3e-09 | -1.9%
COc1ccc(OC)c(-c2cc(C(=O)Nc3c(C)n(C)n(-c4ccccc4)c3=O)no2)c1 | i | 13% | i | 4.5e-09 | -1.4%
O=c1[nH]c(SCc2cccc([N+](=O)[O-])c2)nc2nc[nH]c12 | i | 4%[11.4 µM] | i | 2.1e-08 | -1.1%[11.5 µM]
O=C(OCC(=O)N1CCCc2ccccc21)C1CCN(S(=O)(=O)c2cccs2)CC1 | i | 7% | i | 1.7e-08 | -1.9%
O=C(O)c1c(F)c(F)c(F)c(F)c1-c1ccc(Cl)cc1 | · | 4% | · | · | 3.9%
COc1ccc(C(=O)N2CCCN(C)CC2)cc1S(=O)(=O)N1CCCc2ccccc21 | i | 10% | i | 1e-09 | -0.1%
COc1cccc(C2=CC(c3ccccc3)n3ncnc3N2)c1 (configuration not stated) | i | · | i | 6.1e-09 | ·
O=S(=O)(c1ccc(N2CC=C(c3ccccc3)CC2)nc1)N1CCCC1 | i | ? | i | 1e-09 | 0.4%
COc1ccc(-n2c(=O)c(-c3cn(C)c4ccccc34)nc3cncnc32)cc1 | i | 15% | i | 1e-09 | 4.9%
O=C(NCc1ccc(F)cc1)c1cc(S(=O)(=O)N2CCOCC2)ccc1F | i | 2% | i | 1.2e-08 | 0.2%
COCCn1c(=O)c(-c2ccc(F)cc2)nc2cnc(Oc3cccc(Cl)c3)nc21 | i | 2% | i | 1e-09 | 5.6%
CCOc1ccccc1-c1nc(-c2ccc(NC(=O)Cc3ccc(OC)cc3)cc2)no1 | i | -1% | i | 1e-09 | 1.6%
CCCc1cc(-c2n[nH]c(C)c2-c2ccc(C(=O)OCC)o2)c(O)cc1O | i | -3% | i | 1e-08 | -1.5%
Cc1ccc2[nH]c(=O)c(CN(CCN3CCOCC3)C(=O)Nc3ccccc3F)cc2c1 | i | 12% | i | 2.8e-09 | -0.7%
COc1ccccc1CNc1ncncc1-c1ccccc1C | i | · | i | 1e-09 | -2.8%
CS(=O)(=O)N1CCC(C(=O)NCCC2=CCCCC2)CC1 | i | 3% | i | 2.6e-08 | 0.2%
CN(C)Cc1c(C#N)c2ccccc2n1C | i | -7% | i | 1e-09 | -0.4%
Cn1c(=O)c2c(nc(CN3CCN(C(=O)c4ccco4)CC3)n2Cc2cccc(Cl)c2)n(C)c1=O | i | 8% | i | 2.2e-08 | -0.9%
CN(C)c1ccc(/C=c2\sc3n(c2=O)CCCN=3)cc1 | i | -11% | i | 1e-09 | 21%
O=C(c1ccncc1)N1CCC2(CCCN(c3ccncc3)C2)CC1 | i | -2% | i | 2.5e-09 | -1.0%
O=C(NCc1ccco1)c1ccccc1Nc1ccc(F)cc1 | i | 13% | i | 4.4e-09 | -1.8%
O/N=C/CCn1c(=S)sc2ccccc21 | · | 1% | · | · | -0.5%

From PubChem

An excerpt; rates above refer to the full screens.
